BJeLR lethal = BJeLR cell viability loss; BJeLR (HRASV12) viability, CellTiter-Glo ATP luminescence, 48 h; reference of the scale not given here; inhibition, % (concentration not given with the values); actives 0.17% (n = 300,000); AID 1554;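 active means replicate mean above 50%; inconclusive means above 50% but judged a plate artefact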;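 further: 50 nL library stock added to about 25 µL; numbers are from one replicate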
PrP 5UTR inh = suppresses PrP 5' UTR mRNA reporter expression | inhibition, % (no concentration beside the values) | cell-based PrP 5' UTR mRNA reporter, plate reader | AID 488862 | actives 0.35% (n = 340,000);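 active means every replicate at 50% or more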;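 further: 0 = median of the neutral control wells; tested in H4 reporter cells; numbers are from one replicate; inactives centre near -14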
Mtb hypoxia inh = inhibitors of hypoxia-regulated fluorescent reporter in Mycobacterium tuberculosis | M. tuberculosis hypoxia-regulated fluorescent reporter, fluorescence | fluorescence inhibition, % (no concentration beside the values) | actives 0.1% (n = 300,000);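 active means 35 to 45% if threefold the growth effect, above 45% if 1.5-fold the growth effect; inactive means the rest, general growth blockers included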;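 further: wells of about 50 µL received 100 nL stock; 0% = vehicle wells and 100% = reference inhibitor wells; whole bacteria with a GFP reporter of the hypoxia response; strong numbers were not always called active; many hits fall short of the cut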
Autofluor counter = flagged as autofluorescent in microsphere protease counterscreen | compound autofluorescence counterscreen, microsphere flow cytometry; hits give high values | fluorescence intensity (no concentration beside the values) | actives 3.1% (n = 360,000);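 active means at least 3 SD above the mean of all compounds, about 16000 in these data; inconclusive means too few beads counted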;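 further: 100 nL of 1 mM stock went into each well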
Sa RN4220 lethal = S. aureus RN4220 growth inhibition; OD600, 16 h; AID 1259311; actives 0.33% (n = 330,000); inhibition, % (concentration not given with the values);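 active means z-score of -3 or lower and OD600 up to 0.18 on both plates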;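 further: plate controls were untreated cells for no effect and reference antibiotic for full effect; stock transfer was 100 nL into about 80 µL; one replicate is shown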
ugtP null kill = kills S. aureus RN4220 lacking UgtP | S. aureus RN4220 ugtP deletion, OD600 growth, 16 h; some inactives read as strong as hits | growth inhibition, % (no concentration beside the values) | actives 0.54% (n = 330,000) | AID 1259309;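 active means z-score under -3 and OD600 up to 0.15 on both plates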;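 further: plate controls were untreated wells for no effect and antibiotic for full effect; wells of about 80 µL received 100 nL stock; the first replicate is given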
Mtb hypoxia inh growth = also measured in Mtb hypoxia inh; calls as there; growth inhibition, %; measured here: M. tuberculosis growth (absorbance);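 0% = vehicle and 100% = reference antibiotic; read after six days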
Active calls of the source: *; ? = inconclusive; · = no result given.

Screens in order: BJeLR lethal	PrP 5UTR inh	Mtb hypoxia inh	Mtb hypoxia inh growth	Autofluor counter	Sa RN4220 lethal	ugtP null kill
> CN1/C(=C\C(=O)COC(=O)Cn2nnc(-c3ccccc3)n2)C(C)(C)c2ccccc21
  10.4	-5.7	·	·	5067	-0.9	7.8
> Cc1cc(C)c2c(N)c(-c3nc4ccccc4[nH]3)sc2n1
  -0.1	-81.7	0.8	1.4	2965	23.0	-1.5
> O=C(NN=Cc1c[nH]c2ccccc12)c1cc(-c2ccc3ccccc3c2)n[nH]1
  ·	·	9.5	9.6	·	83.9	62.9
> CCCC1=Nc2cc(C(=O)N3CCN(c4ccccn4)CC3)ccc2Sc2ccc(C)cc21
  13.3	-8.5	0.8	9.0	4367	-9.7	-8.5
> O=C(Nc1ccc(Cl)cc1)C1CCCC1
  0.4	-11.0	8.8	5.5	3497	3.0	0.5
> COc1ccccc1C(=O)N1CCC(C(=O)c2ccc(F)cc2)CC1
  -9.0	-3.4	6.2	4.5	19021*	4.6	1.3
> Cn1nnnc1SCCNCc1cc(Cl)ccc1OCc1ccccc1
  -1.8	0.1	7.4	6.5	2587	7.2	-3.7
> CCOc1ccc2c(c1)c1nnc(SCC(=O)N3CCCCC3C)nc1n2C (stereo not drawn)
  -5.6	-4.5	1.3	0.5	3361	7.6	8.7
> C[C@]12c3[nH]c4cc(-c5ccco5)ccc4c3CCN1C(=O)[C@@H](CC(=O)NCCC1=CCCCC1)C[C@@H]2C(=O)N1CCOCC1
  ·	-14.9	-2.6	5.2	4155	-1.1	-9.7
> COc1cccc(C(C(=O)NC2CCCCC2)N(C(=O)c2ccccn2)c2cccnc2)c1 (stereo not drawn)
  -3.5	-9.7	11.1	7.0	4044	3.6	3.1
> CCOc1ccc(S(=O)(=O)NCCC(=O)OCC(=O)NC(=O)c2cccn2C)cc1
  ·	-10.9	12.6	11.7	3898	1.8	5.5
> COc1ccccc1-c1noc(-c2ccccc2C(=O)NCc2ccco2)n1
  2.6	-23.4	-3.2	-2.6	3898	16.4	5.0
> CCSc1nnc(CNC(=O)C23CC4CC(CC(C4)C2)C3)n1C1CCCCC1
  5.5	-20.2	-6.2	2.2	2219	10.0	6.1
> CSCCC(NC(=O)c1ccco1)C(=O)Nc1ccncc1 (stereo not drawn)
  -6.1	-10.9	7.3	11.3	6308	0.9	5.2
> Cc1cccc(Oc2nc(-c3ccncc3)nc3ccccc23)c1
  -2.8	-10.3	6.0	1.0	5436	-3.0	-9.8
> COC(=O)C1=C(C)OC(N)=C(C#N)C12C(=O)Nc1ccccc12 (stereo not drawn)
  -14.3	-20.4	7.1	-4.9	4542	-1.6	34.5
> OCCN1CCN(c2ncnc3c2c(-c2ccccc2)cn3-c2ccc(F)cc2)CC1
  -4.6	2.1	-5.1	7.7	3197	-11.6	0.4
> COc1ccccc1N1CCN(/N=C/C=C\c2ccco2)CC1
  -8.0	-61.3	·	·	2457	·	·
> CCOCCCNS(=O)(=O)c1ccccc1
  -1.1	-18.0	0.1	9.0	20142*	2.9	4.2
> CCOC(=O)Nc1ccc2c(c1)N(C(=O)CCN1CCN(C)CC1)c1ccccc1S2
  3.7	-12.9	·	·	2881	-1.8	7.0
> S=c1[nH]nc(-c2ccc(Cl)cc2Cl)n1-c1ccccc1
  -13.5	-17.9	10.3	-10.9	2826	4.5	9.0
> Cc1ccc(S(=O)(=O)N2CCOCC2)cc1C(=O)OCC(=O)Nc1ccc2[nH]c(=O)[nH]c2c1
  -8.2	-8.8	-5.2	6.4	·	2.0	-1.5
> CC(/C=N/NC(=O)c1cc(C2CC2)[nH]n1)=C\c1ccccc1
  -0.2	-41.2	·	·	5266	·	·
> CCOC(=O)c1cnc(SCc2ccccc2)nc1N
  5.0	-84.1	-3.8	-7.2	8915	1.0	16.4
> O=C(CN1C(=O)C2C3C=CC(C3)C2C1=O)NCCc1ccccc1Cl (stereo not drawn)
  -0.4	-13.3	15.0	9.3	4285	4.5	6.3
> CC(Nc1nc2ccccc2n2cnnc12)c1ccccc1 (stereo not drawn)
  5.2	-40.7	2.2	0.7	3700	2.6	10.9
> O=S(=O)(c1cccc(C(F)(F)F)c1)N1CCN(C(=S)NCc2ccco2)CC1
  -9.2	-10.1	5.4	-0.3	1917	2.9	-1.6
> O=C(NCc1cccnc1)C(=O)C1C(=O)Nc2ccccc21 (stereo not drawn)
  -4.5	·	1.0	-2.6	3478	2.5	11.3
> Nc1c(N(CCCO)C(=O)CCCN2C(=O)c3cccc4cccc(c34)C2=O)c(=O)[nH]c(=O)n1Cc1ccccc1
  ·	-15.2	3.5	0.1	5420	4.4	5.5
> Cc1cc(C)c2c(n1)sc1c(N3CCCCC3)ncnc12
  5.5	-6.6	·	·	6031	6.3	13.8
> CCSc1sc(CC)cc1C=O
  7.2	-18.5	-4.7	-2.0	2169	12.3	0.5
> CCOC(=O)c1oc2ccccc2c1CN1CCN(c2ccccc2)CC1
  0.4	-12.6	5.1	5.5	4417	0.1	8.4
> CCOc1ccc(NC(=S)NC23CN4CN(CN(C4)C2)C3)cc1
  4.4	-2.1	16.4	4.2	4233	2.5	6.4
> CCOc1ccccc1OCC(=O)OC(C)C(=O)Nc1ncc(Cl)cc1Cl (stereo not drawn)
  ·	-23.5	-5.9	11.9	9465	4.0	1.7
> Cc1cc(C)cc(N2C(=O)CC(n3nc(C)cc3C)C2=O)c1 (stereo not drawn)
  -6.1	-10.0	·	·	4737	2.8	5.1
> O=C(NN=Cc1cc(Br)cc(Br)c1O)c1cccc(N2CCCC2=O)c1
  ·	·	11.3	10.3	·	9.0	1.2
> COc1ccc(CCNC(=O)C(=O)NCC2OCCN2S(=O)(=O)c2cccs2)cc1OC (stereo not drawn)
  4.5	-13.3	6.6	-2.4	5423	1.1	-0.8
> COc1ccc(NS(=O)(=O)c2ccc(NC(=O)c3ccc(N(C)S(C)(=O)=O)cc3)cc2)c(OC)c1
  1.9	-5.4	·	·	10063	·	·
> COc1ccc(-c2cc3ncccc3cn2)cc1
  ·	-20.1	-2.8	5.4	4066	11.1	7.3
> FC(F)(F)c1ccc(N2CCN(c3cc(-c4ccccc4)nc4ncnn34)CC2)nc1
  10.4	9.2	-20.7	11.5	11692	-3.7	-4.3
> O=[N+]([O-])c1ccc(/C=N\N2CCN(c3ccc(Cl)cc3)CC2)cc1
  -1.3	-10.0	·	·	4500	·	·
> COc1ccc(-n2nnc3c(SC(C(C)=O)C(=O)N(C)C)ncnc32)cc1 (stereo not drawn)
  -2.3	-24.9	0.4	-1.8	5263	3.8	5.8
> O=S(=O)(c1ccccc1)N(CC(O)CN1CCOCC1)c1ccccc1 (stereo not drawn)
  -3.9	-19.1	10.4	-7.8	4276	5.7	2.8
> CCc1noc(C)c1C(=O)NC1CC(C)(C)Cc2c1cnn2-c1ccccc1 (stereo not drawn)
  -1.1	-0.2	·	·	4151	·	·
> Cc1nn(CCO)c2ncc(C(=O)c3cc(Cl)ccc3O)cc12
  4.1	-9.9	13.0	0.6	4188	3.0	2.0

Ordered by length of the SMILES (smallest number first): part of the list above
Screens in order: BJeLR lethal	PrP 5UTR inh	Mtb hypoxia inh	Mtb hypoxia inh growth	Autofluor counter	Sa RN4220 lethal	ugtP null kill
> COc1ccc(-n2nnc3c(SC(C(C)=O)C(=O)N(C)C)ncnc32)cc1 (stereo not drawn)
  -2.3	-24.9	0.4	-1.8	5263	3.8	5.8
> O=[N+]([O-])c1ccc(/C=N\N2CCN(c3ccc(Cl)cc3)CC2)cc1
  -1.3	-10.0	·	·	4500	·	·
> COc1ccc(NS(=O)(=O)c2ccc(NC(=O)c3ccc(N(C)S(C)(=O)=O)cc3)cc2)c(OC)c1
  1.9	-5.4	·	·	10063	·	·

Further compounds.
Screens in order: BJeLR lethal	PrP 5UTR inh	Mtb hypoxia inh	Mtb hypoxia inh growth	Autofluor counter	Sa RN4220 lethal	ugtP null kill
> CC(C)(C)c1ccc(C(=O)O)c(C(=O)c2ccc(C(=O)O)cc2)c1
  4.0	-9.8	-0.5	-20.7	3877	-0.3	-1.6
> Cc1cc(N2CCOCC2)nc(NCc2ccccc2)n1
  -6.0	2.2	1.6	-10.3	12870	-1.0	3.3
> CCS(=O)(=O)N1N=C(c2cccs2)CC1c1cc2cc(C)ccc2nc1Cl (stereo not drawn)
  -11.1	-28.0	-0.8	-10.7	8665	2.8	8.3
> CN(C)CC1CCCCC1OC(=O)c1ccc(Br)cc1 (stereo not drawn)
  4.2	-17.6	8.4	5.7	3972	0.0	6.2
> Cc1ccc(OCCNC(=O)c2cccc(S(=O)(=O)N3CCN(C)CC3)c2)cc1
  ·	-17.7	0.2	2.5	6493	2.3	2.8
> O=C(Cn1ccc2cc(S(=O)(=O)N3CCCC3)ccc21)NCCc1ccccc1
  0.3	-9.9	-11.4	-2.8	4149	-3.0	-4.5
> CC(=O)N1CCN(c2ccc(NC(=O)c3ccc(C)cc3)cc2)CC1
  -6.7	-14.1	10.9	12.5	9129	11.0	-4.2
> CCOC1=C/C(=C/c2c(N)n3oc(C)cc3nc2=O)C=CC1=O
  ·	·	18.7	12.8	·	7.0	3.4
> O=C(c1cc(Cl)nc2ccccc12)N(Cc1nnc(-c2ccc(Cl)cc2)o1)C1CC1
  0.8	-27.3	-3.7	2.0	5974	-1.0	7.4
> CCc1cc2ccc(C)c(C)c2nc1SCC(=O)NNC(=O)c1ccco1
  0.5	-21.3	11.0	4.3	3805	4.9	1.4
> O=C(COC(=O)c1ccc2c(c1)OCO2)Nc1ncc(Cl)cc1Cl
  2.0	-16.9	3.8	-3.2	2284	3.9	-4.5
> COc1cccc(Nc2nc(N)nc(C(F)(F)F)n2)c1
  -2.4	-10.1	1.0	-1.3	?	-1.0	-8.3
> COc1ccc(C(=O)OCC(=O)NC(C)(C)C)cc1[N+](=O)[O-]
  8.1	-13.1	10.8	9.3	2557	2.9	1.2
> O=C(CNC(=O)c1ccccc1)Nc1ccsc1C(=O)O
  4.2	-23.7	10.8	-6.9	4227	4.9	0.4
> COc1ccc(/C(O)=C2\C(=O)C(=O)N(CCN3CCOCC3)C2c2ccccc2OC)cc1 (stereo not drawn)
  ·	-12.0	0.9	4.8	2432	0.8	0.0
> O=C(CCC(=O)N(CC(=O)NC1CCCCC1)c1ccc2c(c1)OCO2)Nc1ccccn1
  -5.3	-4.9	·	·	3831	-1.9	-3.2
> COc1cc(CC(=O)Nc2sccc2C(N)=O)cc(OC)c1OC
  -5.4	-27.5	9.4	7.2	3021	2.6	-2.1
> COc1ccc(CNC(=O)C2CCCN2S(=O)(=O)c2ccc(F)cc2)cc1 (stereo not drawn)
  6.3	-16.4	14.3	14.5	4254	21.0	4.7
> CCOC(=O)c1c(NC(=O)Cc2cccs2)sc2c1CCCC2
  -5.2	-20.9	4.0	12.7	3337	16.2	48.3
> Cc1nc(CNS(=O)(=O)c2cccs2)cs1
  5.0	-11.0	8.8	5.0	2518	-0.5	11.3
> Cc1c(C(c2cccc([N+](=O)[O-])c2O)c2c(C)n(C)n(-c3ccccc3)c2=O)c(=O)n(-c2ccccc2)n1C
  ·	-13.2	-3.6	4.2	10999	1.7	3.9
> CCn1c(O)c(C=NN=Cc2ccc(OC)cc2)c2cc(C3=NNC(=O)CC3)ccc21
  ·	·	5.9	1.1	·	4.4	7.1
> CC(C)(C)CN1CCN(Cc2c[nH]c3ccccc23)CC1CCO (stereo not drawn)
  -4.2	-9.0	7.1	6.6	5522	0.2	5.3
> COc1ccc(N(CC(=O)NCc2ccco2)S(C)(=O)=O)cc1
  4.1	-7.2	7.2	5.2	8107	3.0	2.4
> O=[N+]([O-])c1cccc(-c2ccc(/C=N/NC(=S)NCc3ccco3)o2)c1
  10.2	-17.5	·	·	4477	·	·
> CCOc1cc(C2/C(=C(/O)c3ccc(S(=O)(=O)N4CCCCC4)cc3)C(=O)C(=O)N2CCOC)ccc1O (stereo not drawn)
  -2.4	-14.7	-5.6	-10.6	5787	2.5	4.5
> COC(=O)C1C/C(=N\NS(=O)(=O)c2ccc(C)cc2)c2ccccc2C1 (stereo not drawn)
  -8.3	6.9	·	·	6104	·	·
> CC(=O)c1ccc(N2CCN(C(=O)Cn3c(=S)[nH]c4ncccc4c3=O)CC2)cc1
  -1.8	·	3.2	-1.2	·	8.4	7.5
> Cc1ccc(C)c(OCCn2cc(/C=C(\C#N)C(=O)NCc3cccs3)c3ccccc32)c1
  10.3	-29.1	13.9	4.6	22488*	-0.9	-22.2

Bioassay records: PubChem, several laboratories

Compounds were not picked by outcome; any-hit rate near 4%.
